Source: PubChem BioAssay (Broad Institute)
FGF22 binding = binders of human FGF22 protein, primary screen, FGF22 synaptogenesis inhibitor project, biophysical, thermal shift, single point; Fibroblast growth factor 22 (Homo sapiens), Q9HCT0; recombinant FGF22 thermal shift, SYPRO orange fluorescence; percent of sucrose octasulfate shift, DMSO zero; calls only at 9.99 µM; 340,000 compounds, 1.5% hits; AID 651658, 2012;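 active = melting point raised past a set limit in the mean and every replicate; inconclusive = no clear call; three in four hits are not shown here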
Target sequence (Q9HCT0 whole entry, looked up): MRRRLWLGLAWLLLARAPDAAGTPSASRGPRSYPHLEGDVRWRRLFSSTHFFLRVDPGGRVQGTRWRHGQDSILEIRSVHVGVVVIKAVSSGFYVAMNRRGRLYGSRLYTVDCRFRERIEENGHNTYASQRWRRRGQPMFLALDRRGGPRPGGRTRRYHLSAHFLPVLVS
ALR inh = inhibitors of human ALR sulfhydryl oxidase, primary screen, biochemical, H2O2 detection, HRP-luminol luminescence, single point | inhibition, % (concentration not given with the values) | FAD-linked sulfhydryl oxidase ALR (Homo sapiens), P55789 | purified ALR, DTT oxidation | 290,000 compounds, 3.8% hits;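 active = mean and each replicate at 75% or more; inconclusive = only one of the two met; inactive = neither met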;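 note: stock transfer was 7.5 nL into about 7.5 µL; 0% = neutral wells and 100% = wells with inactivated enzyme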
Target sequence (P55789 whole entry, looked up): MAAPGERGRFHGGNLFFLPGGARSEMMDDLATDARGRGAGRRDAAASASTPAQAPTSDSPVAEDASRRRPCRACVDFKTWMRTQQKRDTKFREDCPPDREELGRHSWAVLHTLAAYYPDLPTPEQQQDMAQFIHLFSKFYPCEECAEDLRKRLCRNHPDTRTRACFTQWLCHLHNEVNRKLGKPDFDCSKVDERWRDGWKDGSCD
Beta apoptosis = inhibitors of cytokine-induced beta cell apoptosis, primary screen, luminescence; INS-1E cytokine-induced death, ATP luminescence, 48 h; percent of positive-control rescue, neutral wells zero; protection from apoptosis, % (test concentration not listed); 300,000 compounds, 0.8% hits; AID 435005, 2010;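 active = all replicates at 75% or more, or half of them and the mean; inconclusive = half reach 75% but not the mean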;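 note: 0% = cytokine-treated negative control wells and 100% = positive control rescue; higher means more ATP so stronger rescue from cytokine killing; wells of about 40 µL received 100 nL stock; the first replicate is given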
RanGTP-Impb inh = inhibitors of RanGTP-importin-beta interaction, primary screen, biochemical, FRET, CFP-Ran, YFP-importin-beta, homogeneous. Ran GTPase (GTP-bound) - importin-beta complex. cell-free CFP-Ran/YFP-importin-beta FRET ratio. inhibition, % (concentration not given with the values). 300,000 compounds, 1.1% hits. AID 2216, 2009;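 active = most replicates above 15%; inconclusive = exactly half above 15%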;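 note: 0% = DMSO wells and 100% = Ran loaded with GDP instead of GTP; wells of about 40 µL received 100 nL stock; the first replicate is given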
Calb FLC = C. albicans growth inhibition with fluconazole, primary screen, CaCi-2 strain, Alamar Blue fluorescence; AID 1979, 2009; 300,000 compounds, 0.57% hits; growth inhibition, % (concentration not given with the values); C. albicans CaCi-2 (fluconazole-resistant clinical isolate) + fluconazole, 48 h;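 active = most replicates above 75%; inconclusive = exactly half above 75%; inactive = most below 75%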;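 note: all wells also contain fluconazole at 8 µg/ml as a sub-toxic cotreatment; 0% = median of DMSO wells and 100% = median of geldanamycin control wells; wells of about 8 µL received 7.5 nL stock; the first replicate is given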
MLL AF4-AF9 inh = inhibitors of AF4 peptide binding to AF9, primary screen, biochemical, AlphaScreen, biotin-AF4 peptide, FLAG-AF9, single point | inhibition, % at 10 µM | 350,000 compounds, 0.47% hits | AID 651704, 2012;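 active = every replicate reaching a set inhibition limit, whatever the replicate mean, cut at about 25% in these data; inconclusive = mean inhibition reaches that limit but some replicates miss it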;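 note: 0% = plate neutral control median and 100% = total signal loss; the record names both 10 and 1 µM as test concentration; the first replicate is given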
Target sequence (P42568 whole entry, looked up): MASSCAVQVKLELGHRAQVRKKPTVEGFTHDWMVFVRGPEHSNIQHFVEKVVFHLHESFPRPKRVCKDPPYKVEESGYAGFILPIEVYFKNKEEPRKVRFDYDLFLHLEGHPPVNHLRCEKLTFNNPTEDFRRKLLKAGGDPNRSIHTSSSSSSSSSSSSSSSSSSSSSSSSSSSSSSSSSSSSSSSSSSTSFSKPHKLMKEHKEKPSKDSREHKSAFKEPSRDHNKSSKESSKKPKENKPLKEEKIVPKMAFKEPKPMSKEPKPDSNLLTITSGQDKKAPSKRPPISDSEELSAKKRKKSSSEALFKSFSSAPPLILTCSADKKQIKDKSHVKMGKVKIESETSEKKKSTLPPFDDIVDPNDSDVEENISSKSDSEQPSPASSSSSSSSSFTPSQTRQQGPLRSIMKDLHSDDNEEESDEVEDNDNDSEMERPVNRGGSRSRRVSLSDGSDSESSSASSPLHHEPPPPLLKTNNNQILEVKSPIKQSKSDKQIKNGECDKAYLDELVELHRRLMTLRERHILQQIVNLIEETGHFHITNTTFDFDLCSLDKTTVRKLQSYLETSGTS
rRNA inh HTS = reduced GFP signal of wild-type E. coli, primary screen, bacterial rRNA inhibitor project, GFP/RFP fluorescence, OD600, single point. E. coli WT GFP vs humanized-ribosome RFP mutants, 24 h; active compounds read low; DMSO median 0, no signal -100. GFP signal change (wild-type ribosome), % (concentration not given with the values). 350,000 compounds, 1.6% hits;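 active = significant combined selectivity score with lowered wild-type GFP, culture density cut under 30%, mutant RFP and density less affected; inactive = any of these conditions unmet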; note: one replicate is shown; some compounds called inactive have numbers as strong as hits
T cruzi inh = inhibitors of intracellular T. cruzi growth, primary screen, luminescence, NIH3T3 host cells; inhibition, % (concentration not given with the values); 300,000 compounds, 1.4% hits; T. cruzi beta-gal in NIH3T3, 90 h;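 active = mean inhibition across valid replicates above about 55%, limit read from the data; inconclusive = mean below that limit but half or more replicates reach it; inactive = mean below it, under half of replicates reach it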;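 note: signal also drops with host cell toxicity which is not excluded here; 0% = plate median of DMSO wells and 100% = zero luminescence signal; higher percent means less beta-gal luminescence so fewer parasites; stock transfer was 50 nL into about 50 µL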
rRNA inh HTS OD600 = recorded beside rRNA inh HTS, whose call it bears; OD600 change, %; measured here: OD600 growth;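 optical density of the mix in the first replicate; 0 = DMSO median and -100 = no signal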
rRNA inh HTS RFP = second read-out of rRNA inh HTS, no call of its own (marks repeat the call); RFP signal change, %; measured here: RFP humanized mutant strains;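 first replicate; 0 = DMSO median and -100 = no signal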
Numbers without * were called inactive; i = inactive; u = inconclusive; x = no result given; & = joins results of further samples. Only part of the results is shown; the hit share may differ from the screen's.

structure	FGF22 binding	ALR inh	Beta apoptosis	RanGTP-Impb inh	Calb FLC	MLL AF4-AF9 inh	rRNA inh HTS	rRNA inh HTS OD600	rRNA inh HTS RFP	T cruzi inh
O=C(CCN1CCN(S(=O)(=O)c2ccc(Br)cc2)CC1)Nc1ccccc1F	i	-2	5	0.0	2	-2.6	4	5	0.5	2
CCOC(=O)N1CCC(N2C(=O)c3ccccc3C2=O)CC1	i	4	-8	-3.1	7	-2.8	1	4	-2.0	12
Cc1ccc(N2C(=N)/C(=C3/Nc4ccccc4S3)C(c3ccccc3)C2=O)cc1 (stereo not given)	i	41	-2	x	x	-1.2	0	3	-3.7	x
N#CCC(=O)N/N=C/c1c2ccccc2cc2ccccc12	x	-10	10	0.2	21	7.0	-33	-37	-9.3	14
COc1ccc(N2CCN(c3ccc(Cl)nn3)CC2)cc1	i	10	-4	-4.0	-4	-23	3	16	6.4	9
COc1ccc2[nH]c(C)c(CCNC(=S)Nc3cccc(C)c3C)c2c1	i	20	x	u	-5	12	-13	-7	1.6	-7
CCOC(=O)CSc1nc2c(sc(=S)n2-c2ccc(OCC)cc2)c(=O)[nH]1	i	1	3	-3.1	22	-2.1	x	x	x	17
Cc1cccc(N2CCN(S(=O)(=O)c3ccc(-c4ccc(=O)[nH]n4)o3)CC2)c1C	i	0	35	3.0	16	-1.7	6	9	-1.8	1
CCc1noc(N)c1C(=O)Nc1ccc(Cl)cc1	i	-7	-4	-0.3	1	0.4	3	-1	-1.3	9
CC(C)c1ccc2c(c1)C(N1CCN(C)CC1)Cc1cccnc1S2 (stereo not given)	i	x	-8	4.0	-28	7.1	-22*	-11*	6.7*	17
C=CCNC(=O)/C(C#N)=C/c1c(N2CC(C)OC(C)C2)nc2ccccn2c1=O (stereo not given)	x	-15	5	42*	-4	x	x	x	x	-2
CCOP(=O)(OCC)C(Nc1ccc(F)cc1)c1ccccc1 (stereo not given)	i	x	x	1.4	12	-3.0	x	x	x	9
Cc1ccc(NC(=O)CSc2nnc(-c3ccco3)o2)cc1	i	67	-10	4.6	1	0.5	1	0	-0.2	-3
O=C1C2C3C=CC(C3)C2C(=O)N1c1cccc2ccccc12 (stereo not given)	i	-55	-3	2.7	2	-2.2	7	6	-0.2	-16
O=C(N/N=C/c1ccc(N2CCOCC2)o1)c1cccc(F)c1	x	5	1	0.8	u	x	x	x	x	-6
Cc1ccccc1N1CC(C(=O)O)CC1=O (stereo not given)	i	1	-7	5.2	-17	-0.6	11	9	-1.7	3
O=C(NC1CC1)C1CCN(C2CCN(C(=O)CSc3ccccc3)CC2)CC1	i	0	0	0.4	1	-3.4	17	6	9.5	18
COc1ccc(CCNC(=O)CCCn2c(SCC(N)=O)nc3cc4c(cc3c2=O)OCO4)cc1OC	i	-12	0	5.5	1	-3.4	15	4	-8.2	-14
Cc1ccc(NC(=O)Nc2cc(Cl)ccc2C2COC(=O)C2=N)cc1 (stereo not given)	i	x	-5	5.3	-17	-0.4	11	5	8.8	-1
Cc1cc(C(=O)Cn2cncn2)c(C)n1CCc1ccc(F)cc1	x	-1	9	1.0	-3	x	x	x	x	-1
Cc1ccc(-c2ccc(CCC(=O)O)n2NC(=O)c2ccco2)cc1	x	92*	-2	4.5	0	x	x	x	x	-37
Cc1c(Cl)c([N+](=O)[O-])nn1CCCC(=O)Nc1cccc(O)c1	i	3	x	0.4	-10	1.2	10	4	-0.6	21
CCC(Sc1nc2ccccc2s1)C(=O)Nc1cc(C)on1 (stereo not given)	x	56	-2	0.6	-11	x	x	x	x	-1
CCCCNC(=O)CCCCCn1c(=O)[nH]c2cc(OC)c(OC)cc2c1=O	x	-4	-4	-5.4	4	x	x	x	x	9
COc1ccc(CCNC(=O)CN2CCC(C(N)=O)CC2)cc1	x	-8	-7	-2.3	-16	x	x	x	x	-4
Cc1ccc(NC(=O)CSc2nnc3ccc(-c4cccnc4)nn23)cc1	i	-9	x	0.7	-4	2.5	9	9	-1.4	2
Cc1ccc(NC(=S)NCc2ccccc2)c(C)c1	x	x	x	3.9	-9	4.6	12	1	-0.3	5
O=C(NCc1ccccc1)/C(=C\c1ccccc1)NC(=O)c1ccco1	i	-2	-11	1.8	-5	-0.9	2	2	-3.0	5
Cc1ccc(Nc2nc(N)c([N+](=O)[O-])c(NCCO)n2)cc1C	i	-12	x	5.6	0	x	12	18	0.5	7
COc1cccc(CNS(=O)(=O)c2ccc(S(=O)(=O)NC3CC3)cc2)c1	i	-12	-5	-1.3	3	-2.7	-4	0	0.3	-3
N#CCCNS(=O)(=O)c1ccc(C(=O)OCCCOC(=O)c2ccc(S(=O)(=O)NCCC#N)cc2)cc1	i	-1	-6	1.5	-10	0.8	4	9	0.8	1
COC(=O)[C@@]12CCCCN1[C@H](c1ccc(-c3ccc(OC)cc3)cc1)[C@@H]1C(=O)N(C)C(=O)[C@@H]12	i	-7	-6	1.6	-1	-2.1	3	-2	-1.0	-22
CC(=O)NC(Cc1ccc(F)c(F)c1)C(=O)NC1CCN(S(=O)(=O)c2ccc(C)cc2)CC1 (stereo not given)	i	x	x	2.5	0	2.0	4	4	-2.8	-1
Cc1ccc(N2CCN(CC(O)COc3ccccc3)CC2)cc1 (stereo not given)	i	95*	3	0.8	-19	6.4	10	1	1.1	5
CCOC(=O)C(=O)Nc1ccccc1C(=O)OC	i	5	3	2.0	31	-2.0	10	10	1.3	-4
COc1ccc(CN(CC(=O)NC2CCCC2)C(=O)c2onc(C(N)=O)c2N)cc1	i	-1	-5	-0.4	u	-28	9	2	8.9	8
COc1ccc(N2CCN(C(=O)C3CCC(Cn4c(=S)[nH]c5ccccc5c4=O)CC3)CC2)cc1 (stereo not given)	x	1	34	-1.3	-16	x	x	x	x	37
Cc1nc([N+](=O)[O-])cn1CC(O)c1ccccc1 (stereo not given)	i	4	-8	2.5	5	0.3	20	5	7.6	-11
O=C(C1CCCC1)N1CCC(CO)(Cc2ccccc2Cl)CC1	i	-4	4	1.1	-5	0.3	-28	-38	-8.6	2
Cn1c(=O)n(CC(=O)O)c(=O)c2c1nc1n2CCCN1CCc1ccccc1	i	2	0	1.1	0	6.6	3	2	-0.7	-2
O=C(CCCCCn1c(=S)[nH]c2cc3c(cc2c1=O)OCO3)NCCc1ccccc1	i	-9	5	1.9	-21	1.7	5	10	-0.7	4
COCCNC(=S)N/N=C/c1c(C)[nH]c2ccccc12	i	98*	-1	-3.1	25	-1.7	-36	-36	-13	-5
CCc1ccc(S(=O)(=O)N/N=C\c2ccc([N+](=O)[O-])o2)cc1	i	-32	-9	8.1	13	-2.2	6	8	-5.2	19
CCCCc1cc(=O)oc2cc(OCC(=O)N(CC)CC)ccc12	x	-40	4	-1.5	-1	x	x	x	x	13
O=C(CCNC(=O)c1ccccc1)OCC(=O)c1cccc(Cl)c1	i	-5	-4	1.1	-2	-1.5	6	4	1.0	3
CC(=O)c1sc(-c2ccccc2)nc1C	i	-11	-2	1.5	-19	0.0	13	9	-0.4	-22
COc1ccc(CNC(=O)c2sc3nc4c(c(C(F)(F)F)c3c2N)CCC4)cc1OC	i	x	-23	-2.1	-5	2.9	-19*	-12*	3.1*	19
O=[N+]([O-])c1ccc(-n2nnnc2-c2ccccc2)c([N+](=O)[O-])c1	i	-53	-7	5.4	25	5.6	-2	0	-8.4	62*
C#CCNC(=O)C1=C[C@@H](C2CC2)[C@H](CCCO)[C@@H](OCC)O1	i	-4	1	-2.4	-8	3.6&-12	-32	-37	-5.8	-26
Cn1c2cc(C#N)sc2c2cnn(Cc3ccc(F)cc3)c(=O)c21	i	-2	-5	x	x	-0.1	0	-9	7.2	x
CN1C2CCC1CC(OC(c1ccccc1)c1ccccc1)C2 (stereo not given)	i	7	-6	-0.1	-5	0.0	9	0	3.3	29
Cc1ccc(Cl)c(OCCCCN(C)Cc2ccccc2)c1	x	-2	-6	0.9	-65	x	x	x	x	26
CCOc1cc(/C=C(/NC(C)=O)C(=O)O)cc(Cl)c1OCc1ccc(Br)cc1	i	7	-5	-5.0	3	4.6	-12	-10	1.9	1
O=C(CCCC(=O)NCC1CCCO1)NCC1CCCO1 (stereo not given)	x	-2	-7	6.0	-11	x	x	x	x	-8
O=C(c1cc(COc2ccc(F)c(F)c2)on1)N1CCOCC1	i	0	x	5.7	-5	-15	4	-1	-0.1	-18
COC(=O)c1cc(OC)c(OC)cc1NC(=O)CSc1nnc(-c2cccnc2)n1C	x	6	3	-1.0	-6	x	x	x	x	-2
COc1ccc(NS(=O)(=O)c2cccc3nsnc23)cc1Cl	i	33	0	-0.2	3	-0.3	-4	-15	3.7	-5
COc1ccc(C2Nc3ccccc3C(=O)N2Cc2ccccc2)cc1CSc1ccccn1 (stereo not given)	i	-1	3	2.3	3	3.8	4	8	-2.4	26
CC(=O)c1c(C)[nH]c(C(=O)OCc2nnc(-c3ccc([N+](=O)[O-])cc3)o2)c1C	i	-8	-8	x	x	-2.4	-5	3	-3.8	x
CCC(=O)N1CCCc2cc(S(=O)(=O)N3CCN(c4ncccn4)CC3)ccc21	i	-13	4	-1.3	-1	1.2	1	8	-6.9	-18

The results go on.
structure	FGF22 binding	ALR inh	Beta apoptosis	RanGTP-Impb inh	Calb FLC	MLL AF4-AF9 inh	rRNA inh HTS	rRNA inh HTS OD600	rRNA inh HTS RFP	T cruzi inh
CCOc1ccc(NC(=O)c2cccc(NC(=O)c3ccccc3)c2)cc1	i	6	1	-0.7	7	-0.6	3	9	10	2
COc1cccc(CN2CCCCC2C(=O)O)c1 (stereo not given)	i	-2	x	1.5	-5	0.4	27	19	0.0	0
CC1CN(C(=O)c2cc(COc3c(F)cccc3F)on2)CCN1C (stereo not given)	i	-3	-4	-0.6	2	1.4	17	7	5.0	9
CCN(c1ccc(F)cc1)S(=O)(=O)c1cccc2nsnc12	i	-1	-4	5.6	13	-0.1	-9	-11	-5.3	-6

3 compounds already listed, sorted by the value under RanGTP-Impb inh, largest number first:
| mol | ALR inh | RanGTP-Impb inh | MLL AF4-AF9 inh | rRNA inh HTS | rRNA inh HTS OD600 | rRNA inh HTS RFP |
| --- | --- | --- | --- | --- | --- | --- |
| CCN(c1ccc(F)cc1)S(=O)(=O)c1cccc2nsnc12 | -1 | 5.6 | -0.1 | -9 | -11 | -5.3 |
| COc1cccc(CN2CCCCC2C(=O)O)c1 (stereo not given) | -2 | 1.5 | 0.4 | 27 | 19 | 0.0 |
| CCOc1ccc(NC(=O)c2cccc(NC(=O)c3ccccc3)c2)cc1 | 6 | -0.7 | -0.6 | 3 | 9 | 10 |
